# Screening data (PubChem)
# H5N1 antiviral – MDCK cell protection from H5N1 avian flu | cytopathic effect, luminescence, 72 h; stronger effect = higher value; no value below 0 was filed and about half of the inactive calls have no number; reference of the scale not given here | inhibition, % at 50 µM | 96,000 compounds, 0.07% hits | AID 740; in the data active means inhibition above about 25%
# The depositor's hits bear a star; i = inactive. The list is partial; the hit share may differ from the screen's.
smiles	H5N1 antiviral
CCOC(=O)C1=C(C)NC(=O)NC1c1c(C)nn(-c2ccccc2)c1Cl (configuration not stated)	i
CCCCNc1nc2c(c(=O)[nH]c(=O)n2C)n1CCOc1ccccc1	i
Cc1nn(C)cc1CN(C)C(=O)c1sc2cccc(Cl)c2c1Cl	0.1
Nc1nc2n(n1)C(c1c(F)cccc1Cl)CC(c1ccc(F)cc1)N2 (configuration not stated)	1.7
N#Cc1c(N)sc2c1CCN(C(=O)OCc1ccccc1)C2	0.2
CCOC(=O)c1c(C)[nH]c(C)c1C(=O)COC(=O)CNC(=O)c1ccc(OCC)cc1	0.8
CCOC(=O)COc1ccc2c(c1)C(=O)CC(C)(c1cccnc1)O2 (configuration not stated)	0.8
CNc1nc(C)c(C(=O)c2ccc(Cl)cc2)s1	i
Cc1cccc(NC(=O)C2CCN(S(=O)(=O)c3cccc4cccnc34)CC2)n1	1.1
COC(=O)c1cnn(C(=O)c2ccccc2Br)c1N	i
COc1ccc(CN(C)c2ncnc(N)n2)cc1	0.1
CC(C)NC(=O)c1onc(CSc2cccc(F)c2)c1C(=O)O	i
COc1ccc(N2CCN(Cc3cc(=O)oc4ccc5ccccc5c34)CC2)cc1	0.4
CCOC(=O)CNS(=O)(=O)c1cc(-c2nn(C)c(=O)c3ccccc23)ccc1C	2.1
Cc1ccc2oc(-c3cccc(NC(=S)NC(=O)/C=C/c4ccco4)c3)nc2c1	i
CCOC(=O)c1cc(C#N)c(SCc2ccc(C#N)cc2)nc1C	i
COc1ccc(C(=O)c2ccc(OC)c3cccc(O)c23)cc1OC	i
COc1ccc(CC(=O)NCCN2CCCC2)cc1	0.4
COc1cc(/C=C(\C#N)c2nc3c(s2)CCCC3)ccc1O	2.3
CCCC1CCC(C2=N/C(=C\c3ccc(OC)c(OC)c3)C(=O)O2)CC1 (configuration not stated)	0.3
CCc1ccc(OCCNC(=O)c2ccc(S(=O)(=O)N(C)C)cc2)cc1	1.0
COC(=O)C(C)NC(=O)C1CCCN1S(=O)(=O)c1cc(C)c(Cl)cc1C (configuration not stated)	0.6
O=C1CN(S(=O)(=O)c2ccccc2)CC(=O)N1CCc1ccccc1	0.3
Cc1ccc(-c2noc(CCC(=O)N3CCCc4ccccc43)n2)cc1	0.2
CCN(CC)S(=O)(=O)c1cccc(-c2nnc(-c3ccc(C)cc3)o2)c1	6.7
CC(Sc1nc(-c2ccccc2)cc(C(F)(F)F)n1)C(=O)Nc1sc2c(c1C#N)CCC2 (configuration not stated)	0.1
Cc1noc(C)c1S(=O)(=O)N1CCCC(C(=O)N2CCN(C3CCCCC3)CC2)C1 (configuration not stated)	0.5
O=C(Nc1ccc(N2CCCCC2)cc1)c1cccnc1Cl	0.9
CCOc1ccc(N(CC(=O)NC2CCCC2)C(=O)CCC(=O)Nc2ccccn2)cc1	0.1
O=c1cc(-c2cccs2)oc2ccc(Cl)cc12	0.6
COc1ccc(CNC(=O)CSc2nc(-c3ccccc3)cc(-c3cccs3)c2C#N)cc1	i
CC(C)(C)C(=O)N1CCN(c2c(Cl)cccc2[N+](=O)[O-])CC1	i
CCCCn1c(SCC(=O)N2CCCCC2C)nc2cc(S(N)(=O)=O)ccc21 (configuration not stated)	0.8
CSc1ccccc1NC(=O)c1cnc2scc(C)n2c1=O	1.1
CCOC(=O)CSc1nc2ccccc2n1CC(=O)N(C(C)C)C(C)C	0.2
CCOC(=O)c1ccc(NC(=O)C(C)N2C(=O)c3ccccc3C2=O)cc1 (configuration not stated)	i
Cc1ccccc1N(CC(=O)NCC1CCCO1)C(=O)C1(C)CC(=O)N=C2C=CC=CN21 (configuration not stated)	i
CCN(CC)C(=O)CSc1ncnc2c1nnn2-c1ccc(OC)cc1	1.1
COc1ccc(OC)c(N2C(=O)CC(C(C)c3ccccc3)C2=O)c1 (configuration not stated)	i
O=C(OCc1cc(-c2ccccc2)no1)c1ccc2ccccc2n1	i
CC(=O)c1nnn(-c2nc(N3CCCC3)nc(N(c3ccccc3)c3ccccc3)n2)c1C	0.7
Cc1noc(C)c1S(=O)(=O)N1CCC(C(=O)Nc2ccc(OC(F)(F)F)cc2)CC1	i
CC(=O)Nc1ccccc1-c1nn[nH]n1	i
CCOc1ccc(-c2nnc(N(CC)C(=O)C3CCC3)s2)cc1	i
S=C(NC1CCCCC1)c1ccc2c(c1)OCO2	2.5
Cc1ccc(C(c2sc3ncnn3c2O)N2CCCCC2)cc1 (configuration not stated)	0.4
CS(=O)CSc1nc2c(cc1C#N)CCCC2 (configuration not stated)	i
CS(=O)(=O)c1ccc(-c2nn[nH]n2)cc1	i
Cc1cc(C(=O)CSc2nnc(-c3cccs3)n2Cc2ccccc2)c(C)n1C	0.6
COc1cc(OC)cc(C(=O)NCCn2ccc3ccccc32)c1	i
O=C(NC1(O)C(=O)c2ccccc2C1=O)c1ccccc1	i
O=C(CN(CC1CCCO1)C(=O)CCC(=O)Nc1nccs1)NCC1CCCO1 (configuration not stated)	i
Cc1ccc(Nc2nc(N)nc(CSc3nc4ccccc4s3)n2)cc1	i
Cc1cc(C)c2c(=O)[nH]n(C3CC(C)N(C)CC3C)c2n1 (configuration not stated)	0.3
CCN(CC)C(=O)CSc1nnc([C@@H](NC(=O)OC(C)(C)C)C(C)C)o1	i
COc1ccc(N2CCN(CCNC(=O)c3c(C)cc(=O)oc3C)CC2)cc1	0.1

# Remaining list, next part.
smiles	H5N1 antiviral
COc1ccc(OC)c(NC(=O)C2C3CC4OC(=O)C2C4C3)c1 (configuration not stated)	i
CC(=O)Nc1c(C(=O)N2CCOCC2)sc2nc3c(cc12)COC(C)(C)C3	1.4
CC(CN1CCOCC1)OC(=O)c1cccs1 (configuration not stated)	1.6
CCn1c(=O)c2cc(C(=O)N3CCN(C)CC3)sc2c2ccccc21	0.6
Cn1cnnc1SCC(=O)Nc1ccccc1	0.5
C=CCSc1nc2c(cnn2-c2ccc(C)c(C)c2)c(=O)[nH]1	1.2
COc1ccc(N2CCN(Cc3nc4ccsc4c(=O)[nH]3)CC2)cc1	1.0
COC(=O)CSc1nnc(CNc2ccc(F)cc2)o1	i
O=C(NCc1cccs1)C1CCCN(S(=O)(=O)c2ccc3c(c2)OCO3)C1 (configuration not stated)	0.1
COc1ccc(C2CC2/C(=N/OC(=O)c2cccs2)c2ccccc2)cc1 (configuration not stated)	i
Cc1csc(NC(=O)CSc2nnc(C)s2)n1	1.1
COc1ccc(C(=O)COc2ccccc2N2C(=O)C3C4C=CC(C4)C3C2=O)cc1 (configuration not stated)	i
OCCN(Cc1ccccc1)Cc1ccc(F)c(F)c1	0.5
c1csc(-c2csc3ncnc(NCCCN4CCOCC4)c23)c1	0.6
O=C(c1cccc(N2CCCC2=O)c1)N1CCC2(CC1)OCCO2	0.5
COc1ccc(-n2c(SCc3nnc(-c4ccccc4)o3)nnc2-c2ccccc2)cc1	i
Cc1cccc(N(C(=O)CCC(=O)Nc2cc(C)on2)C(C(=O)NC2CCCC2)c2ccncc2)c1 (configuration not stated)	i
CCc1cc2c(=O)n(-c3ccccc3)c(=S)[nH]c2s1	i
COC(=O)c1cc(OC)c(OC)cc1NC(=O)C(C)Sc1ccc(C)cc1 (configuration not stated)	1.4
O=C(NNC(=S)NC(=O)C12CC3CC(CC(C3)C1)C2)c1ccncc1	0.1
COc1ccc(N2C(=O)CC(N3CCC(n4c(=O)[nH]c5ccccc54)CC3)C2=O)cc1 (configuration not stated)	i
Cn1c(=O)c2c(SCc3ccccc3)nc(-c3ccco3)nc2n(C)c1=O	0.1
Cc1[nH]n(-c2cccc3ccccc23)c(=O)c1/C=N/c1sc2c(c1C#N)CCC2	0.1
O=C(CSCc1ccccn1)Nc1ccccc1	i
O=C(Nc1ccc2ccccc2c1)c1cccnc1	2.0
O=C(NCc1ccccc1)c1cc2ccccc2o1	1.3
OCC#CCSc1nnc(-c2ccc(Br)cc2)o1	i
COc1ccccc1NC(=O)Cc1noc(CSc2nnc(N)s2)n1	i
Cc1ccc(CNC(=O)CCNC(=O)Cn2ccc3ccccc3c2=O)o1	1.0
Nc1nc2c(s1)C(=O)CC(c1ccccc1)C2 (configuration not stated)	i
Cc1nnc(Sc2c(N)n(C)c(=O)[nH]c2=O)s1	i
Cc1ccc(C(=O)CSc2n[nH]c(C)n2)cc1	i
O=C(NCC(c1cccnc1)N1CCOCC1)c1cccc(Cl)c1 (configuration not stated)	0.9
COc1ccccc1NC(=S)NC(=O)CC(C)C	5.4
O=C(c1ccco1)N1CCN(c2nc(C3CC3)nc3sc4c(c23)CCCC4)CC1	1.8
O=C(Cn1cnc2c(nnn2Cc2ccccc2)c1=O)c1ccccc1	i
CN(C)CCNC(=O)c1cc2c(=O)n(C)c3ccccc3c2n1C	5.8
O=C(NCc1ccncc1)c1c(F)c(F)c(F)c(F)c1F	0.1
O=C(Nc1cccc(Cl)c1Cl)c1snnc1-c1ccccc1	1.0
COc1ccc(S(=O)(=O)N2CCC(NC(=O)OCc3c(Cl)cccc3Cl)CC2)cc1	i
O=C(NCC(=O)N(Cc1ccccc1)C(C(=O)NCC1CCCO1)c1ccccc1)c1cccs1 (configuration not stated)	i
CCOC(=O)Cc1nnc2c(Nc3ccc(Cl)cc3)nc3nonc3n12	11
Cc1nc2ccc(NC(=O)NCc3ccco3)cc2s1	i
O=C(NCc1ccco1)C1CCN(S(=O)(=O)c2ccc(-n3cnnn3)cc2)CC1	0.4
CCn1c(=O)n(CCc2ccccc2)c(=O)c2c3c(sc21)CCCC3	0.4
O=C(c1ccco1)N1CCN(S(=O)(=O)c2ccc(Oc3ccccc3)cc2)CC1	0.5
O=C(NCCN1CCN(C(=O)Nc2ccccc2)CC1)Nc1ccccc1	i
CC(C)NC(=O)C1CCCN(c2nnc(-n3cccc3)s2)C1 (configuration not stated)	2.8
CC(C)(C)NC(=O)COc1ccc(-c2ccccc2)cc1	0.4
Nc1ccccc1NC(=O)c1ccccc1	i
O=C(COC(=O)c1ccccc1C(=O)c1ccc(Cl)c([N+](=O)[O-])c1)NC1CCCCCC1	8.8
C=CCNC(=S)NNC(=O)c1csc(C)c1CC	1.9
COn1c(SCc2cccc(Cl)c2)nc2ccccc2c1=O	1.7
COC(=O)C(Cc1ccc(OC(=O)c2ccccc2Cl)cc1)N1Cc2ccccc2C1=O (configuration not stated)	1.6
Cc1cc(NC(=O)COC(=O)C(Cc2ccccc2)NC(=O)c2ccco2)no1 (configuration not stated)	i
C=CCNCCCCOc1ccc(OCC)cc1	i

# The listing continues.
smiles	H5N1 antiviral
CCNC(=O)CC1C(=O)N(c2ccc(F)cc2)C(=O)N1Cc1ccccn1 (configuration not stated)	1.0
CN1C(=O)CC(c2ccco2)Sc2ccccc21 (configuration not stated)	0.8
O=C(O)CCc1ccc(-c2ccccc2)o1	1.0
NC(=O)C1CCCN(C(=O)c2ccc(Cl)cc2)C1 (configuration not stated)	0.9
Cc1nn(C)c(C)c1NS(=O)(=O)c1ccccc1	0.5
C=CCc1ccc(OCC(O)CO)c(OC)c1 (configuration not stated)	i
COc1ccc2c(c1)c1c3n2CCN(C)C3=NCC1	2.2
CC(=O)c1sc(NC(=O)c2c(F)cccc2F)nc1C	8.5
Cc1ccc(N(CCCCN2C(=O)c3ccccc3C2=O)C(=O)c2cccc([N+](=O)[O-])c2)cc1	3.3
Cc1c(N2C(=O)CSC23C(=O)Nc2ccccc23)c(=O)n(-c2ccccc2)n1C (configuration not stated)	0.8
C/C(=C\C(=O)N1CCc2ccccc21)C(=O)O	i
COc1ccc(OC)c(C(c2nnnn2C(C)(C)C)N2CCc3ccccc3C2)c1 (configuration not stated)	0.2
CCC(C)c1ccc(O)c(N)c1 (configuration not stated)	i
CC(C)C(c1nnnn1Cc1ccccc1)N(CCCO)Cc1cc2cc3c(cc2[nH]c1=O)OCO3 (configuration not stated)	i
CN1C(=O)N(C)C2CC1N(C)C(=O)N2C	0.1
Cc1ccc(OCCn2c(C)c(/C=N/n3cnnc3)c3ccccc32)cc1	i
CCOC(=O)c1c(-c2ccc(OC)cc2)nc2nonc2c1N	2.1
Cn1ccnc1SCC(=O)Nc1cc(C(F)(F)F)ccc1N1CCOCC1	i
CC(=O)N1CCCc2cc(S(=O)(=O)CCC(=O)N3CCN(c4ccccc4)CC3)ccc21	1.6

# Taken from the entries so far (16 entries):
smiles	H5N1 antiviral
CCNC(=O)CC1C(=O)N(c2ccc(F)cc2)C(=O)N1Cc1ccccn1 (configuration not stated)	1.0
CN1C(=O)CC(c2ccco2)Sc2ccccc21 (configuration not stated)	0.8
O=C(O)CCc1ccc(-c2ccccc2)o1	1.0
NC(=O)C1CCCN(C(=O)c2ccc(Cl)cc2)C1 (configuration not stated)	0.9
Cc1nn(C)c(C)c1NS(=O)(=O)c1ccccc1	0.5
C=CCc1ccc(OCC(O)CO)c(OC)c1 (configuration not stated)	i
COc1ccc2c(c1)c1c3n2CCN(C)C3=NCC1	2.2
CC(=O)c1sc(NC(=O)c2c(F)cccc2F)nc1C	8.5
Cc1ccc(N(CCCCN2C(=O)c3ccccc3C2=O)C(=O)c2cccc([N+](=O)[O-])c2)cc1	3.3
Cc1c(N2C(=O)CSC23C(=O)Nc2ccccc23)c(=O)n(-c2ccccc2)n1C (configuration not stated)	0.8
C/C(=C\C(=O)N1CCc2ccccc21)C(=O)O	i
COc1ccc(OC)c(C(c2nnnn2C(C)(C)C)N2CCc3ccccc3C2)c1 (configuration not stated)	0.2
CCC(C)c1ccc(O)c(N)c1 (configuration not stated)	i
CC(C)C(c1nnnn1Cc1ccccc1)N(CCCO)Cc1cc2cc3c(cc2[nH]c1=O)OCO3 (configuration not stated)	i
CN1C(=O)N(C)C2CC1N(C)C(=O)N2C	0.1
Cc1ccc(OCCn2c(C)c(/C=N/n3cnnc3)c3ccccc32)cc1	i
